VACV mCherry inh: inhibitors of vaccinia virus infection (mCherry reporter signal) | 0.63% of 310,000 active | Vaccinia virus mCherry reporter infection, fluorescence; about a quarter of the inactives have no number | Potency, µM (highest dose often 36.5 µM), inactives show at the top dose activity change, negative = inhibition, usual class: inhibitors | AID 720579; active = well fitted inhibition curve with a large enough effect; inconclusive = small, poorly fitted or top-dose-only effect; inactive = no such curve, though single readings can be large or run the other way; tested in A549 cells; further: nearly all actives have a fitted effect of over 35% in size; inactives centre near -10
Vaccinia Venus: vaccinia inhibition (Venus reporter) | Vaccinia virus Venus reporter expression, fluorescence | Potency, µM (titrated, usually from 36.5 µM), for the others: top-dose activity change, negative = inhibition, most hits filed as inhibitors | 0.46% of 330,000 active; active means well fitted inhibition curve with a large enough effect; inconclusive means small, poorly fitted or top-dose-only effect; inactive means no such curve, though single readings can be large or run the other way; tested in A549 cells; further: nearly all actives have a fitted effect of over 30% in size; inactives centre near -10
* hit, by the source's call; i = inactive; ? = inconclusive; . = no result given; + = active, no number; & = joins results of further samples; [ ] = another dose, or the depositor's remark. On the % scale 0 is the no-effect control and ±100 the full control effect; potency means the concentration at half of the fitted maximal effect. No enrichment for hits; 0.88% or so of the library scored in one or more.

No. | Molecule | VACV mCherry inh | Vaccinia Venus
1 | CC(NC(=O)CN1C(=O)NC(C)(C2CC2)C1=O)c1ccc(F)cc1 (configuration not stated) | -18% | 8%
2 | O=C(O)C[C@H]1c2ccccc2S(=O)(=O)N1c1ccccc1 | i | -1%&-15%
3 | CCCCCNC(=O)c1ccc2c(=O)n(CC3CCCO3)c(=O)[nH]c2c1 (configuration not stated) | -7% | -6%
4 | C#CCOCCOCCOCCNc1nc(N2CCN(C(=O)C([C@@H](C)CC)n3cc(C(N)CO)nn3)CC2)nc(N2CCN(C(=O)[C@H](CCC(=O)O)n3cc(C(N)CC(C)C)nn3)CC2)n1 (some centres not stated) | -11% | -3%
5 | COc1ccc(C(=O)Nc2ccc(-c3nc4ccccc4s3)c(Cl)c2)cc1Cl | ? | ?
6 | CCc1ccc(C2=NN(c3ccc(S(N)(=O)=O)cc3)C(c3ccc(F)cc3)C2)cc1 (configuration not stated) | ? | ?
7 | Cc1ccc(NC(=O)c2nc(S(=O)(=O)Cc3ccccc3)ncc2Cl)cc1 | -23% | ?
8 | O=C(NNc1cc(Cl)ccc1Cl)c1cccnc1Cl | ? | -3%
9 | Cc1cccc(C)c1NC(=S)N=Nc1c(O)n(C)c2ccc(S(=O)(=O)N3CCOCC3)cc12 | -12% | 2%
10 | Cc1cccc(C(=O)NCc2nnc(SCc3ccc(F)cc3)n2C)c1 | i | -17%
11 | Cc1ccc(C(=O)NCc2ccc3c(c2)OCO3)cc1S(=O)(=O)N1CCCCC1 | . | ?
12 | CCCCNC(=O)Cc1ccc(Br)cc1 | -3% | -7%
13 | Nc1nc(SCC(=O)N2CCCCC2)[nH]c(=O)c1NC(=O)c1ccccc1F | ? | -6%
14 | COc1cc(/C=N/NC(=O)C2COc3ccccc3O2)cc(OC)c1OC (configuration not stated) | i | -13%
15 | COc1cc(S(=O)(=O)NCc2ccncc2)c(OC)cc1Cl | -3% | -8%
16 | O=C(c1cn(-c2ccccc2)nc1-c1ccc(F)cc1)N1CCCCC1 | -7% | -13%
17 | CCCCCC(=O)Nc1ccc(S(=O)(=O)Nc2nccc(C)n2)cc1 | i | -4%
18 | Oc1ccc(/C=N/Nc2ncnc3c2ncn3Cc2ccccc2)cc1O | -9% | -22%
19 | CCOC(=O)/C(C#N)=C/c1cccn1-c1ccc(Cl)cc1 | -6%[7.34 µM] | -6%[7.34 µM]
20 | CCOC(=O)c1c2c(n(C)c1C)C(=O)C(=O)c1ccc(Br)cc1-2 | -6% | -8%
21 | O=C1CCc2cc(S(=O)(=O)NCc3ccccc3Cl)cc3c2N1CC3 | -19%&-14% | -15%&5%
22 | COC(=O)c1ccc(Oc2ccc3nnc(C)n3n2)cc1 | i | -15%
23 | CCn1cnc2cc(NCc3cccc(OC)c3O)ccc21 | i | -8%
24 | CCN(CC)c1ccc2cc(-c3nc(-c4ccc(Cl)cc4Cl)cs3)c(=O)oc2c1 | 4% | 47%[activator]
25 | COc1ccc(S(=O)(=O)NC2CCCCC2)cc1C | -8% | -3%
26 | COc1ccc(-c2ccc(SCC(=O)c3ccc(F)cc3)nn2)cc1OC | -15% | -11%
27 | COc1ccc(-c2cn3c(n2)sc2cc(C(=O)NCc4ccccc4OC)ccc23)cc1 | -7% | -6%
28 | COc1cc(/C=C2\SC(=S)N(CCC(=O)Nc3ccccn3)C2=O)cc(OC)c1OC | i | -9%
29 | COCCOC(=O)c1c(NC(=O)CN2CCOCC2)sc(C(N)=O)c1C | -4% | -21%
30 | CCC(CO)Oc1cc(NCc2cccc(O)c2)c2ncn(C(C)C)c2c1 (configuration not stated) | ? | -15%
31 | O=C(Cn1cc([N+](=O)[O-])cn1)N1CCc2ccccc21 | -1% | -7%
32 | Cc1cccc(NCc2nc3ccccc3n2C)c1 | -6% | -10%
33 | Cc1ccc(CNC(=O)Cc2ccc(-n3cccc3)cc2)cc1 | ? | -26%
34 | COC(=O)c1c(C)[nH]c(C)c1C(C)=O | -6% | -29%
35 | COCCCn1cc(C(=O)c2cc(Br)ccc2O)cc(C#N)c1=O | ? | 6%
36 | COc1cccc(CNC(=O)CCc2c(C)nc3c(c(C)nn3-c3ccc(C)c(C)c3)c2C)c1 | -16% | -19%
37 | CS(=O)(=O)c1ccc2nc(NC(=O)CS(=O)(=O)c3ccc(Cl)cc3)sc2c1 | i | -14%
38 | Cc1nc(-c2nc(-c3c(C(=O)NN)noc3C)cs2)cs1 | -23% | -23%
39 | CCC(=O)Nc1c2c(nn1-c1cccc(Cl)c1)CSC2 | -1% | 1%
40 | Cc1nc(SCc2cccc(Oc3ccccc3)c2)n[nH]1 | -17% | -14%
41 | O=C(CSc1nc2c(oc3ccccc32)c(=O)n1-c1ccccc1)Nc1ccc(F)c(Cl)c1 | -11% | -14%
42 | Cc1ccc(Cl)cc1NC(=O)c1csnn1 | -11% | -5%
43 | COc1cccc2cc(-c3nc(-c4ccccc4)c(C)s3)c(=O)oc12 | 29% | -8%
44 | Cn1c(/C=C/c2ccccc2)nc2ccccc2c1=O | ? | -28%
45 | Cn1c(C(=O)OC(C(=O)NC(C)(C)C)c2cccnc2)cc2sccc21 (configuration not stated) | -20% | -21%
46 | NNC(=O)c1ccccc1CO | 1% | 1%
47 | CCOC(=O)c1cnn(-c2ncnc3sc4c(c23)CCC4)c1N | -3% | -10%
48 | Cc1nn(-c2ccccc2)c2c1c(C)c(CCC(=O)N1CCOCC1)c(=O)n2C | -13% | -9%
49 | CCOC(=O)c1csc(NC(=O)CN2CCCCC2)n1 | -9% | -5%
50 | O=C(Cn1cnc2cc([N+](=O)[O-])ccc2c1=O)Nc1ccc2c(c1)CCC2 | . | -17%
51 | Cc1ccc(-c2cc(-c3ccccc3)nc(N/N=C/c3cccnc3)n2)cc1 | ? | -28%
52 | COc1ccc(NC(=O)c2cc(-c3ccccc3F)no2)cc1 | -14% | -15%
53 | COc1cc2cc(CCCOC(=O)c3cccc(Br)c3)oc(=O)c2cc1OC | i | -8%
54 | CCOC(=O)C1CCN(C(=O)c2cccc(S(=O)(=O)Nc3ccc(C)cc3C)c2)CC1 | -3% | -14%
55 | O=C(O)C1c2ccccc2Cc2ccccc21 | -2% | -5%
56 | COc1ccc2[nH]c3c(NCCC4=CCCCC4)ncnc3c2c1 | ? | ?
57 | S=C(NCCNC(=S)Nc1ccccc1Cl)Nc1ccccc1Cl | -10% | -3%
58 | CCOC(=O)c1c(C)[nH]c(C)c1C(=O)CSc1nc2ccccc2c(=O)n1-c1ccc(C)cc1 | -18% | 1%
59 | O=C(NCC(c1cccnc1)N1CCN(c2ccc(F)cc2)CC1)OCc1ccccc1 (configuration not stated) | . | ?
60 | Cc1ccc([N+](=O)[O-])c(NC(=O)COC(=O)CCNS(=O)(=O)c2cccs2)c1C | -9% | -15%

Rewritten in transposed form: entries from further up.
#38 Cc1nc(-c2nc(-c3c(C(=O)NN)noc3C)cs2)cs1
#39 CCC(=O)Nc1c2c(nn1-c1cccc(Cl)c1)CSC2
#40 Cc1nc(SCc2cccc(Oc3ccccc3)c2)n[nH]1

assay / compound	38	39	40
VACV mCherry inh	-23%	-1%	-17%
Vaccinia Venus	-23%	1%	-14%

The list continues.
No. | Molecule | VACV mCherry inh | Vaccinia Venus
61 | Cc1cccc(C)c1NC(=O)C1C2C=CC(C2)C1C(=O)O (configuration not stated) | -19% | 1%
62 | COc1cccc(C(=O)OCC(=O)N2CCc3ccccc3C2)c1OC | -12% | -8%
63 | COc1ccccc1-c1c(C)nn2c(N3CCN(c4ccc(Cl)cc4)CC3)cc(C)nc12 | ? | ?
64 | COc1ccc(S(=O)(=O)CCc2nnc(NC(=O)c3ccc(F)cc3)s2)cc1 | -3% | -11%
65 | O=S(=O)(NCC1CCCO1)c1ccc(Cl)nc1 (configuration not stated) | i | -1%
66 | Cc1ccc(SC[C@H](Cc2ccccc2)N2CCN(CCc3ccccc3)CCC2=O)cc1 | i | ?
67 | COc1cccc(NC(=O)N2CCCC2C(=O)NC2CCCCC2)c1 (configuration not stated) | -1% | -4%
68 | CCOC(=O)C(=CNc1cc(C)ccn1)C(=O)OCC | -26% | -16%
69 | COc1ccccc1-c1nnc(SCC(=O)Nc2ccccc2)o1 | -8% | -8%
70 | COc1ccc2c(c1)CCc1cnc(-n3ncc(C(=O)NCCCN4CCOCC4)c3C)nc1-2 | ? | -21%
71 | N#CCc1nn(-c2ccccc2)c(N)c1C#N | -12%[1.46 µM] | -4%
72 | N#CCCN(C(=S)NC(=O)C1CCCCC1)c1ccccc1F | -10% | 16%
73 | CCc1cc(Cn2nc(-c3ccccc3)cc2C(=O)NCc2ccccc2OC)on1 | i | -25%
74 | C(CCc1nn[nH]n1)CCc1nn[nH]n1 | i | -13%
75 | O=C(NNC(=O)c1cc(-c2cccc(Br)c2)nc2ccccc12)c1csc(N2CCOCC2)n1 | -6% | -18%
76 | CCCCNCc1cccn1-c1ccccc1 | -10% | -14%
77 | CCCCc1nnc(NC(=O)CN(C)S(=O)(=O)c2ccc(C)cc2)s1 | i | -12%
78 | CCCCCC(=O)N1CC2(CC(c3cccc(NC(=O)COc4ccc(Cl)cc4)c3)=NO2)C[C@@H]1C(N)=O (some centres not stated) | ? | ?
79 | CCOC(=O)C1(CC2CCCCO2)CCN(C(=O)Nc2ccc(C)c(C)c2)CC1 (configuration not stated) | 1% | -4%
80 | COc1cccc(Cn2cccc(NC(=O)NC3CCCCC3)c2=O)c1 | -5% | -18%
81 | Cc1ccc(C(=O)Cc2nnc(C)s2)cc1 | -11% | 0%
82 | CCOc1ccccc1NC(=O)NCCN1CCCCC1 | -7% | -8%
83 | O=C(Nc1cccc(C(=O)N2CCN(c3ccccc3F)CC2)c1)c1nsc2ccccc12 | -17% | -19%
84 | Nc1ccc(CCNc2ncnc3c2ncn3C2OC(CO)C(O)C2O)cc1 (configuration not stated) | -20% | -10%
85 | CC(C)c1nc2ccc(C(=O)NCCCN3CCN(c4ccc(F)cc4)CC3)cc2o1 | i | -6%
86 | O=c1cc(CO)oc(CN2CCN(c3ccccc3F)CC2)c1O | . | 24%
87 | CCOC(=O)C1C(=O)C(=O)N(C(C)C)C1C(=O)OCC (configuration not stated) | -10% | 9%
88 | O=c1oc2ccccc2c(O)c1Sc1c(O)c2ccccc2oc1=O | ? | -7%
89 | Cc1ccc(S(=O)(=O)NC2CC(C)(C)NC(C)(C)C2)cc1C | ? | -9%
90 | O=C1c2cccc3cccc(c23)C(=O)N1CCN1CCN(C(=S)Nc2ccccc2)CC1 | i | -9%
91 | Cc1ccc(NC(=O)c2cc(S(=O)(=O)N(C)C3CCCCC3)ccc2F)cc1C | -17% | -17%
92 | COc1cc(OC)cc(C(=O)NNC(=O)CNC(=O)c2ccc(Br)o2)c1 | -12% | -10%
93 | CCN(Cc1ccccc1)C(=O)CN1C(=O)COc2ccc(S(=O)(=O)N3CCOCC3)cc21 | -5% | -14%
94 | CN(C)c1cccc(NC(=O)c2cccc3ccccc23)c1 | -20% | -6%
95 | CN(C(=O)C(C)(C)C)c1ccc(OCC(=O)N2CCc3ccccc3C2)cc1 | i | -3%
96 | CC1(C)Oc2ccc3ccc(=O)oc3c2C(/C=N/O)=C1Cl | i | -7%
97 | COc1ccc(-c2cn(-c3cccc(C)c3)c(=O)[nH]2)cc1OC | -8% | -6%
98 | COc1ccc(-c2nsc(NC(=O)COc3ccc(C)c(C)c3)n2)cc1 | 1% | 4%
99 | COc1ccc(NC(=O)c2ccc(C(=O)Nc3ccc(OC)cc3OC)cc2)c(OC)c1 | -14% | -2%
100 | CCCCONc1ncnc2nonc12 | -9% | -11%
101 | COc1c(Cl)cc(C(=O)Nc2cccnc2)cc1Cl | 3% | -3%
102 | CC(=O)NC(=S)Nc1cccc2c(C)cc(C)nc12 | -7% | -23%
103 | NC(=O)c1ccc(N2CCCCCC2)c([N+](=O)[O-])c1 | i | -12%
104 | CC(C)Oc1ccc(CNC(=O)c2sc3ncccc3c2-n2cccc2)cc1 | -11% | -7%
105 | O=C1Nc2ccc([N+](=O)[O-])cc2OC1CCN1CCOCC1 (configuration not stated) | -8% | -9%
106 | O=C(CNc1cccc(S(=O)(=O)N2CCOCC2)c1)Nc1ccc(C(F)(F)F)cc1 | -12% | -23%
107 | COc1cc(C(=S)N2CCCC2)ccc1OC(=O)c1ccc(Cl)cc1[N+](=O)[O-] | ? | -29%
108 | CCc1ccc(NC(=O)CCc2c(C)nc3nc(-c4cc(OC)cc(OC)c4)nn3c2C)cc1 | -15% | -18%
109 | Cc1c2c(n3c(nc4ccccc43)c1C#N)N(CCCN(C)C)CC2 | -15% | -26%
110 | Nc1nnc(SCC(=O)c2ccc([N+](=O)[O-])cc2)s1 | -22% | -5%
111 | COC(=O)/C=C/c1cnc[nH]1 | i | -10%
112 | Cc1ccc(CN2CC(N3CCN(CC4CC4)CC3)CS2(=O)=O)cc1 (configuration not stated) | 17% | 2%
113 | CCn1c(=O)[nH]c(=O)c2c(N)c(C(=O)c3ccccc3OC)sc21 | -8% | ?
114 | CCOC(=O)C1(CC/C(C)=N\NC(N)=O)CC(C)(C)OC1=O (configuration not stated) | -7% | -10%
115 | CC(C)(NC(=O)c1ccccc1)c1nc2ccccc2s1 | ? | -6%
116 | O=C(O)CC(CC(=O)Nc1ccc(Oc2ccccc2)cc1)c1ccccc1 (configuration not stated) | i[7.34 µM] | -3%[7.34 µM]
117 | CCCCN(C(=O)C1=COCCO1)c1c(N)n(CCCC)c(=O)[nH]c1=O | i | -8%
118 | CCOCCCNC(=O)C(c1ccccc1)N1Cc2ccccc2C1=O (configuration not stated) | i | -12%
119 | Cc1cn([C@H]2C[C@H](O)[C@@H](CCC(=O)NCc3ccccc3)O2)c(=O)[nH]c1=O | + | ?

High-throughput results (PubChem)
